Assay outcomes as filed in PubChem.
Bfl-1 A1 inh – inhibitors of the anti-apoptotic protein A1, read as caspase activation; AID 2462; MEF A1-2A-BIM cells, Caspase-Glo 3/7 luminescence, 3 h; percent of clofoctol response, vehicle zero; caspase activation, % (no concentration beside the values); 330,000 compounds, 0.066% hits;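 active means over half of replicate activation scores above 10%, or exactly half above 10 with the replicate mean above 10; inconclusive means replicate mean below 10 yet half the replicates above 10; inactive means over half of replicates below 10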;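 further: wells of about 30 µL received 50 nL stock; many hits fall short of the cut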
UCH37 inh – human UCH37 deubiquitinating enzyme inhibition; Q9Y5K5; purified proteasome/UCH37, Ub-AMC cleavage fluorescence; inhibition, % (no concentration beside the values); 330,000 compounds, 0.33% hits; AID 588478;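 active means mean of two replicates above 20%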;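 further: 0% = compound-free wells with enzyme and 100% = wells lacking proteasome; stock transfer was 100 nL into about 20 µL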
Target sequence (Q9Y5K5 whole entry, looked up): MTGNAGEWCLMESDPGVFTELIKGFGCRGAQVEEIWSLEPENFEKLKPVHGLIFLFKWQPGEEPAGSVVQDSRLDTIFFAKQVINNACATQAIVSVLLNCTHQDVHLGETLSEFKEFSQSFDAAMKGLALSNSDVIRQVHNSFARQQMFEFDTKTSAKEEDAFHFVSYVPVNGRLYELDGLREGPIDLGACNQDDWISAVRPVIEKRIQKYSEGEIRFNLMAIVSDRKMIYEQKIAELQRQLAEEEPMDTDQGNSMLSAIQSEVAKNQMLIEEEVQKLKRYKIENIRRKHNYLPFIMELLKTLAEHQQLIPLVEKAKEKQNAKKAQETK
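Reagent: Ub-AMC substrate; assay system: Proteasome-associated human UCH37 deubiquitinase; controls: no-proteasome and no-compound wells; read-out: % inhibition of Ub-AMC cleavage fluorescence; timing: 30 min preincubation with enzyme, 25 min cleavage at room temperature; signal: AMC fluorescence from Ub-AMC cleavage, excitation 355 nm, emission 460 nm; buffer or medium: Tris-HCl pH 7.4 plus ovalbumin, ATP-MgCl2, DTT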
RanGTP-Impb inh – disruptors of Ran-importin-beta complex formation – biochemical, FRET, CFP-Ran, YFP-importin-beta, homogeneous, primary screen; cell-free CFP-Ran/YFP-importin-beta FRET ratio; inhibition, % (test concentration not listed); 300,000 compounds, 1.1% hits;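 active means most replicates above 15%; inconclusive means exactly half above 15%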;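 further: 0% = DMSO wells and 100% = Ran loaded with GDP instead of GTP; wells of about 40 µL received 100 nL stock; the first replicate is given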
Beta cell apopt – blocks beta cell apoptosis. INS-1E cytokine-induced death, ATP luminescence, 48 h; percent of positive-control rescue, neutral wells zero. protection from apoptosis, % (test concentration not listed). 300,000 compounds, 0.8% hits. AID 435005;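 active means all replicates at 75% or more, or half of them and the mean; inconclusive means half reach 75% but not the mean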;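 further: 0% = cytokine-treated negative control wells and 100% = positive control rescue; higher means more ATP so stronger rescue from cytokine killing; wells of about 40 µL received 100 nL stock; the first replicate is given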
B2AR ag – activates human beta-2 adrenergic receptor causing internalization; P07550; response, % (test concentration not listed); 340,000 compounds, 0.43% hits; Am2.2-beta2AR cells, FAP receptor internalization, flow cytometry; reference of the scale not given here;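 active means response above a set limit, near 3 SD of response in nonfluorescent compounds, cut at about 42% in these data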;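 further: stock transfer was 100 nL into about 11 µL; a reference agonist was the positive control; negative values mostly stem from fluorescent compounds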
Target sequence (P07550 whole entry, looked up): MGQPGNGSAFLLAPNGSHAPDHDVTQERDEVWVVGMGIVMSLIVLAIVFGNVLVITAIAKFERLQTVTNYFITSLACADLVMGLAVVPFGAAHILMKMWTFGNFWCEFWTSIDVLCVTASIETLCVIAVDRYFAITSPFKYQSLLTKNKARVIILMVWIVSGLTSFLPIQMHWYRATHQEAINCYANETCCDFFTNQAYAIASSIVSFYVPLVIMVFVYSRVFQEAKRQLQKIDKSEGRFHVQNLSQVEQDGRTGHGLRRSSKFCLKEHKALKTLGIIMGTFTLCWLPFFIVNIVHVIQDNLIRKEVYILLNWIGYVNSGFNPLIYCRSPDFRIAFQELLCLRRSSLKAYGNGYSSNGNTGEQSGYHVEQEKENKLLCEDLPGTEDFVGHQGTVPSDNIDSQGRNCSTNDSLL
LANA-H2B inh – blocks KSHV LANA binding to histone H2A/H2B. cell-free LANA-H2A/H2B peptide, fluorescence polarization. inhibition, % (test concentration not listed). 320,000 compounds, 0.6% hits; in the data active means inhibition mostly above about 10%, no sharp cut-off; inactive means mostly below about 6.7%;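 further: stock transfer was 7.5 nL into about 10 µL; 0% = median of vehicle wells and 100% = median of positive control wells; one replicate is shown; the record names a cut of 25% in any replicate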
Calb FLC – C. albicans growth modulation with fluconazole. C. albicans CaCi-2 (fluconazole-resistant clinical isolate) + fluconazole, Alamar Blue growth, 48 h. growth inhibition, % (concentration not given with the values). 300,000 compounds, 0.57% hits. AID 1979;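 active means most replicates above 75%; inconclusive means exactly half above 75%; inactive means most below 75%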;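 further: all wells also contain fluconazole at 8 µg/ml as a sub-toxic cotreatment; 0% = median of DMSO wells and 100% = median of geldanamycin control wells; wells of about 8 µL received 7.5 nL stock; the first replicate is given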
T cruzi inh – T. cruzi replication inhibition; T. cruzi beta-gal in NIH3T3, luminescence, 90 h; 300,000 compounds, 1.4% hits; AID 1885; inhibition, % (test concentration not listed);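 active means mean inhibition across valid replicates above about 55%, limit read from the data; inconclusive means mean below that limit but half or more replicates reach it; inactive means mean below it, under half of replicates reach it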;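 further: signal also drops with host cell toxicity which is not excluded here; 0% = plate median of DMSO wells and 100% = zero luminescence signal; higher percent means less beta-gal luminescence so fewer parasites; stock transfer was 50 nL into about 50 µL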
Numbers without * were called inactive; ? = inconclusive; / = not tested or not shown.

Below each compound: Bfl-1 A1 inh | UCH37 inh | RanGTP-Impb inh | Beta cell apopt | B2AR ag | LANA-H2B inh | Calb FLC | T cruzi inh
CCn1nc(C)cc1C(=O)NC1CCCc2c1cnn2-c1ccc(C)c(C)c1 (stereo not given)
    -0.1 | 5.0 | -0.3 | 24 | -3 | -9.3 | -5 | -2
O=C(O)Cc1cn(Cc2ccc(F)cc2)c2ccccc12
    0.8 | 5.3 | 1.4 | -1 | 7 | -1.6 | 8 | 1
CC1(C)CC(=O)C(N=Nc2cc3c(cc2[N+](=O)[O-])OCCO3)=C(O)C1
    0.4 | 5.2 | -5.8 | 0 | 1 | -3.5 | -7 | -2
CCCCN(C(=O)c1cc2ccccc2o1)c1c(N)n(CCC)c(=O)[nH]c1=O
    0.1 | -1.9 | 7.4 | -3 | 2 | -0.1 | -26 | -6
COc1ccc(S(=O)(=O)N2CCN(C3CC4CCC3C4)CC2)cc1 (stereo not given)
    1.2 | 0.4 | ? | -7 | -10 | -9.5 | 1 | 12
Fc1ccc(-c2cc(C(F)(F)F)nc(NCC3CCCO3)n2)cc1 (stereo not given)
    0.0 | -11 | 4.4 | 0 | -16 | -5.9 | 5 | 23
N#CCC(=O)Nc1ccc(C(=O)OCC(=O)c2ccc3c(c2)OCO3)cc1
    -0.4 | -4.0 | -0.1 | 4 | -5 | -4.6 | 2 | 1
CCOc1ccc(NC(=O)NC2CCCc3ccccc32)cc1 (stereo not given)
    -1.9 | -0.4 | 0.2 | 1 | 3 | 3.7 | -9 | 11
O=c1o[nH]c(-c2ccccc2)c1-c1ccccc1
    0.1 | 1.1 | 6.9 | 7 | 8 | 0.6 | 1 | /
CC(C)CC(=O)N=C1SC2CS(=O)(=O)CC2N1Cc1ccccc1 (stereo not given)
    1.0 | 4.3 | -1.0 | 0 | -3 | -1.3 | -7 | -2
Cc1ccccc1OCCN1C(=O)c2ccccc2C1=O
    -2.0 | 2.3 | 3.4 | 11 | -8 | 0.4 | 10 | -10
COCCNC(=O)CCSc1nc(-c2ccc(OC)cc2)cc(C(F)(F)F)n1
    1.7 | -23 | 0.1 | -7 | 9 | 1.6 | 2 | 0
COc1ccccc1CC(=O)NNC(=O)c1ccco1
    0.1 | 0.8 | -2.2 | -3 | -11 | 6.1 | -3 | -1
Cn1c2ccc(CC(=O)O)cc2c2cc(CC(=O)O)ccc21
    0.2 | -4.8 | 2.0 | / | 11 | -5.2 | -11 | 7
Cc1cc([N+](=O)[O-])nn1CCCC(=O)NCc1ccccc1
    0.5 | 1.3 | -3.1 | -1 | 0 | -2.8 | 1 | 10
C=CCNC(=O)Nc1ccc(Br)cc1Cl
    0.0 | 3.0 | / | -2 | -1 | -1.0 | ? | -7
COC(=O)c1cc(NS(=O)(=O)c2cccc(Cl)c2)ccc1N1CCOCC1
    -0.2 | 1.6 | 1.4 | 0 | 4 | 2.2 | -7 | 8
CN(C)S(=O)(=O)c1cccc(NC(=O)c2ccc(N3CCCC3=O)cc2)c1
    0.8 | 2.8 | / | 1 | -7 | 3.3 | / | /
CC(C)C(=O)Nc1ccc([N+](=O)[O-])cc1Br
    -0.3 | 3.0 | 8.6 | -7 | 7 | 3.9 | 23 | 8
COc1cccc(C2c3[nH]c4ccccc4c3C[C@H]3C(=O)N(C)CC(=O)N23)c1 (stereo not given in full)
    0.1 | 5.0 | 3.0 | -5 | 1 | -5.4 | 5 | -13
O=C(NC(n1ccc(=O)[nH]c1=O)C(Cl)(Cl)Cl)C12CC3CC(CC(C3)C1)C2 (stereo not given)
    0.7 | 5.9 | -2.2 | 2 | 4 | -2.2 | -3 | 1
Cc1[nH]c2ccccc2c1C(=O)CN1CCN(C/C=C/c2ccccc2)CC1
    -0.8 | 5.7 | 0.0 | -1 | 6 | 1.5 | -7 | 32
Cc1ccc(C)c(S(=O)(=O)N2C(=S)NC(=O)C2C(C)C)c1 (stereo not given)
    0.7 | 3.2 | -0.1 | 0 | 4 | -0.8 | 52 | -12
CC(=O)Nc1ccc(Oc2ccc3nc(C)[nH]c3c2)cc1
    1.3 | 3.5 | 1.2 | 2 | 13 | -0.8 | 4 | -10
CC1CCCCC1NC(=O)Cn1nc(-c2ccccc2)ccc1=O (stereo not given)
    2.1 | 0.1 | 0.6 | 0 | -10 | 3.9 | 1 | -13
Cc1ccc(S(=O)(=O)NCc2ccc(C(=O)N3CCN(c4ccccc4)CC3)cc2)cc1
    -0.3 | 2.0 | 5.7 | -4 | -5 | 0.0 | -3 | 13
CCC1CCC(C(=O)NC(C(=O)Nc2ccc3c(c2)OCCO3)C(C)C)CC1 (stereo not given)
    0.6 | 2.3 | ? | -1 | -6 | 4.4 | -22 | -12
O=C(c1nc2ncccn2n1)N1CCN(c2ccccc2)CC1
    0.3 | -2.3 | -1.9 | 1 | 3 | 2.5 | 8 | -9
CCn1cc(C(=O)O)c(=O)c2cc(F)c(N3CCN(S(=O)(=O)c4ccc(Br)cc4)CC3)cc21
    0.1 | / | 10 | 1 | / | -6.0 | 0 | 14
CCc1ccc(CN2CCC(N3CCC(C(=O)N4CCCC4)CC3)CC2)o1
    -0.4 | -2.0 | 2.0 | -6 | 2 | 1.6 | -8 | 4
Nc1ccc2oc(-c3cc(Br)ccc3Cl)nc2c1
    -2.5 | -30 | -0.1 | -4 | -13 | -1.2 | -9 | -13
CCOc1ccccc1N(C(=O)Cn1nnnc1-c1ccc(C)o1)C(CC)C(=O)NC(C)(C)C (stereo not given)
    -0.5 | 2.1 | 1.8 | -8 | 5 | -0.5 | 4 | 7
O=C1Nc2ncccc2OC1CCO (stereo not given)
    3.4 | 0.1 | 0.7 | 5 | -10 | 1.5 | 2 | 8
COc1ccc(CNC(=O)CN(C(=O)c2csnn2)c2cccc(C(C)=O)c2)cc1
    -0.2 | 5.5 | 0.0 | -3 | -5 | -4.0 | 7 | -4
O=C(O)c1cc(NC(=O)c2ccc3c(c2)C(=O)N(Cc2cccnc2)C3=O)cc(C(=O)O)c1
    0.0 | 0.8 | 0.7 | 0 | -4 | 2.3 | -5 | -20
CC(CCC(=O)O)C1CC[C@H]2C3CCC4CC(=O)CCC4(C)[C@H]3CC(=O)C12C (stereo not given in full)
    -0.3 | 1.3 | -0.4 | 3 | -4 | 3.6 | -3 | 17
O=C(COC(=O)Cc1ccc(S(=O)(=O)N2CCCCC2)s1)Nc1ccc2c(c1)OCO2
    2.0 | -0.3 | -0.3 | 1 | 4 | -2.6 | 0 | -2
CCc1ccc2[nH]c(=O)c(CN(Cc3ccco3)C(=S)NCC3CCCO3)cc2c1 (stereo not given)
    -0.2 | 0.0 | -2.3 | / | 1 | 1.3 | 17 | -24
CCc1ccc(CNCc2cccnc2)cc1
    0.3 | 3.5 | 1.8 | -2 | 3 | -4.6 | -56 | 0
Cc1[nH]c2ccccc2c1C(=O)CN1CCCC(C)C1 (stereo not given)
    0.8 | 5.4 | 3.0 | -6 | -1 | 1.9 | -13 | -4
CN(C)CCOc1ccc2c(c1)Sc1ccccc1CC2=O
    0.0 | 3.4 | 9.4 | -21 | -1 | 0.5 | -5 | 46
O=C(NCCN1CCOCC1)c1cn(-c2ccccc2)nc1-c1cccs1
    0.5 | 5.7 | -4.4 | 7 | -18 | -1.0 | 0 | 1
NC(N)=NC1=NC(=O)/C(=C/c2ccccc2-n2cccn2)S1
    0.0 | -0.1 | 2.1 | -7 | -4 | -0.8 | -16 | -28
Cc1ccc2cc(C)c(N3CCN(c4ccc(F)cc4)CC3)nc2c1
    1.2 | -3.7 | 3.1 | 9 | 0 | 0.9 | -14 | 9
Cc1ccc(NC(=O)Cn2nnc(C(=O)NCc3cccs3)c2N)cc1
    -0.6 | 0.0 | 2.8 | 0 | -4 | 1.7 | 2 | 3
CCCc1cc(=O)[nH]c(SCC(=O)c2c(N)n(CC(C)C)c(=O)n(C)c2=O)n1
    0.6 | 4.4 | -0.7 | 0 | 5 | -3.8 | -1 | -8
COc1cccc(NC(=O)OCCN2CCN(Cc3ccccc3)CCC2=O)c1
    -0.3 | 4.1 | ? | -2 | 3 | -0.5 | 6 | 21
O=C(COc1cccc2c1CCN(Cc1ccc(Cl)cc1)C2=O)N1CCOCC1
    0.3 | 1.8 | -0.8 | -2 | -4 | 5.9 | 1 | 20
C=CCNC(=O)Nc1ccc(Cl)cn1
    0.5 | 2.7 | 1.4 | -5 | -3 | -2.6 | 13 | -10
CC1CCCN(C(=O)C2CCN(S(=O)(=O)c3ccccc3)CC2)C1 (stereo not given)
    2.2 | 0.4 | / | 2 | -1 | 4.0 | / | /

New compounds follow
Below each compound: Bfl-1 A1 inh | UCH37 inh | RanGTP-Impb inh | Beta cell apopt | B2AR ag | LANA-H2B inh | Calb FLC | T cruzi inh
CC(C)CCNC(=O)CN(C(=O)CCC(=O)Nc1ccccn1)c1ccc2c(c1)OCO2
    0.3 | / | -0.6 | -2 | -4 | 0.5 | -4 | 6
Cc1ccc([N+](=O)[O-])cc1S(=O)(=O)Nc1ccc(OCC(=O)N2CCOCC2)cc1
    0.7 | 4.0 | 0.9 | 0 | 0 | 4.8 | 12 | -2
CC(C)CCNC(=O)c1onc(CSc2ccc(F)c(F)c2)c1C(=O)NCCC(C)C
    -0.7 | 1.9 | 0.1 | 1 | -7 | -3.7 | -11 | 10
COc1ccc2c(c1)OC[C@H]1[C@@H]2N2C(=O)[C@@H](C)NC(=O)[C@@]2(C)[C@H]1c1ccccc1
    0.8 | 0.9 | / | 1 | 4 | -3.5 | / | /
Cc1c(C(=O)OCCOc2ccc(Br)cc2)sc(=S)n1C
    0.0 | 2.9 | 2.4 | -3 | -12 | 0.4 | -16 | 8
CC(C)(C)OC(=O)C[C@H]1C/C=C\C[C@@H](CC(=O)N(CCO)Cc2ccccc2)C(=O)N[C@H](Cc2c[nH]c3ccccc23)COC1=O
    0.7 | 5.3 | / | 4 | -7 | -3.0 | / | /
COc1cccc2cc(C(C)N(CCCN3CCOCC3)C(=S)Nc3cccc(C)c3)oc12 (stereo not given)
    -0.3 | / | ? | -1 | 6 | 13* | -2 | -4
O=C(O)CC/C(=N/NC(=O)CNC(=O)C(c1ccccc1)c1ccccc1)c1ccccc1
    1.3 | / | -0.2 | -6 | -6 | -0.1 | 3 | 1
Cc1ccc(C)c(S(=O)(=O)N2CCCOC2CNC(=O)C(=O)NCc2ccc3c(c2)OCO3)c1 (stereo not given)
    -0.6 | 6.6 | 4.4 | -7 | -6 | -2.4 | -5 | 10
Clc1ccc(NC2(c3nnnn3C3CCCCC3)CCCCC2)cc1
    0.7 | -1.6 | -0.1 | / | 8 | 2.8 | -6 | 15
O=C(Nc1ccn(Cc2ccccc2F)n1)c1ccc(COc2ccc(Br)cc2)cc1
    -1.1 | 1.0 | 1.7 | -5 | -5 | -6.2 | 44 | -5
